BJeLR viability: MLPCN primary cell-based screen for lethality selective to Ras in HRASV12 cells; inhibition, % (concentration not given with the values); 300,000 compounds, 0.17% hits; BJeLR (HRASV12) viability, CellTiter-Glo ATP luminescence, 48 h; reference of the scale not given here;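 active = replicate mean above 50%; inconclusive = above 50% but judged a plate artefact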;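 also: 50 nL library stock added to about 25 µL; numbers are from one replicate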
Mtb hypoxia rep: PubChem AID 1159583 | M. tuberculosis hypoxia-regulated fluorescent reporter, fluorescence | fluorescence inhibition, % (concentration not given with the values) | 300,000 compounds, 0.1% hits;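 active = 35 to 45% if threefold the growth effect, above 45% if 1.5-fold the growth effect; inactive = the rest, general growth blockers included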;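 also: wells of about 50 µL received 100 nL stock; 0% = vehicle wells and 100% = reference inhibitor wells; whole bacteria with a GFP reporter of the hypoxia response; strong numbers were not always called active; many hits fall short of the cut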
PrP UTR inh: inhibition of PrP 5' UTR reporter expression | cell-based PrP 5' UTR mRNA reporter, plate reader | AID 488862, 2010 | inhibition, % (concentration not given with the values) | 340,000 compounds, 0.35% hits;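 active = every replicate at 50% or more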;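 also: 0 = median of the neutral control wells; tested in H4 reporter cells; numbers are from one replicate; inactives centre near -14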
Sa RN4220 lethal: growth inhibition of S. aureus RN4220, primary screen, OD600; inhibition, % (test concentration not listed); 330,000 compounds, 0.33% hits; 16 h;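 active = z-score of -3 or lower and OD600 up to 0.18 on both plates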;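 also: plate controls were untreated cells for no effect and reference antibiotic for full effect; stock transfer was 100 nL into about 80 µL; one replicate is shown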
Bead autofluor: counter-screen for toxin protease inhibitors: compound fluorescence; compound autofluorescence counterscreen, microsphere flow cytometry; hits give high values; fluorescence intensity (test concentration not listed); 360,000 compounds, 3.1% hits; AID 624483;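 active = at least 3 SD above the mean of all compounds, about 16000 in these data; inconclusive = too few beads counted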;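 also: 100 nL of 1 mM stock went into each well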
Sa ugtP lethal: growth inhibition of ugtP-null S. aureus, primary screen, RN4220 ugtP deletion, OD600 | 16 h; some inactives read as strong as hits | AID 1259309, 2017 | 330,000 compounds, 0.54% hits | growth inhibition, % (test concentration not listed);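 active = z-score under -3 and OD600 up to 0.15 on both plates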;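 also: plate controls were untreated wells for no effect and antibiotic for full effect; wells of about 80 µL received 100 nL stock; the first replicate is given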
Mtb hypoxia rep growth: also measured in Mtb hypoxia rep; calls as there; growth inhibition, %; measured here: M. tuberculosis growth (absorbance);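 0% = vehicle and 100% = reference antibiotic; read after six days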
* = called active by the depositor; ? = inconclusive; / = no result given.

cpd	Compound	BJeLR viability	Mtb hypoxia rep	Mtb hypoxia rep growth	PrP UTR inh	Sa RN4220 lethal	Bead autofluor	Sa ugtP lethal
1	C=CCn1c(Sc2nc(C)cs2)nc2c1c(=O)[nH]c(=O)n2C	6	3	7	-9	0.2	23702*	3
2	COc1ccc(N(CC(=O)Nc2ccc(C)cn2)S(=O)(=O)c2c(C)nn(C)c2C)cc1	/	-8	7	2	17	6007	6
3	COc1cccc(NC(=O)Cn2c(=O)n(CCC(=O)NC3CCN(Cc4ccccc4)CC3)c(=O)c3ccccc32)c1	6	1	4	-57	-0.5	6621	3
4	C#Cc1ccc([C@@H]2C=C(C(=O)OCC=C)O[C@H](OCc3ccc(CO)cc3)C2)cc1	10	/	/	-27	/	2813	/
5	CC1CC(C)(C)NC(=S)N1CCCC(=O)Nc1ccccc1F (stereo not drawn)	/	11	5	-20	6.1	4468	6
6	CC1CCC2(CC1)NC(=O)N(Cc1cc(=O)n3ccsc3n1)C2=O (stereo not drawn)	3	-5	2	/	4.4	/	9
7	Cc1ccc2[nH]c3c(=O)n(CC(=O)Nc4ccccc4N4CCN(C)CC4)ncc3c2c1	-12	10	4	-3	1.7	4419	4
8	COc1ccc2[nH]c(=O)c(COC(=O)c3cccs3)cc2c1	-5	15	6	-5	9.1	2054	5
9	O=C(NN=Cc1cc(O)ccc1[N+](=O)[O-])c1ccc2c(c1)OCCO2	/	0	4	/	8.7	/	15
10	COC(=O)N(c1ccccc1)P(=O)(Oc1ccccc1)Oc1ccccc1	-5	15	5	-11	4.2	3447	6
11	CC(C)NS(=O)(=O)c1ccc(CCC(=O)NCc2cccnc2)cc1	-6	3	3	-23	2.4	3322	7
12	Cc1cccc(-n2c(C)cc(C=NNC(=O)c3cccs3)c2C)c1	/	4	-2	/	3.5	/	-3
13	Cc1cc(=O)n2nc(N3CCC(C(=O)NCc4ccccc4Cl)CC3)sc2n1	-2	-1	5	13	-2.3	5061	-6
14	COc1nc(C)ccc1-c1noc(-c2ccccn2)n1	0	1	-1	-122	1.2	15186	7
15	CC1Cc2ccccc2N1c1ncnc2nc[nH]c12 (stereo not drawn)	9	8	10	4	7.8	5909	-1
16	Cc1ccc(NC(=O)CSc2nnc(N)s2)cc1S(=O)(=O)N1CCCCC1	1	1	-3	-18	4.7	5021	1
17	O=C(Nc1cccc(O)c1)c1ccc(Br)cc1	-14	9	6	-79	9.3	21990*	-1
18	CC(C)CC(O)C1CCN(C(=O)CCc2nnc(-c3ccc4c(c3)OCO4)o2)CC1 (stereo not drawn)	-6	13	-6	-20	4.2	6105	12
19	COc1cc(OC)cc(-c2nnc(SCC(=O)N3CCCCC3)o2)c1	5	/	/	-31	-0.4	6563	-1
20	N#Cc1c(C(F)(F)F)cc(-c2cccs2)nc1SCc1ccc(Cl)nc1	21	-3	9	/	-6.4	10613	-26
21	CCn1ncc(Br)c1C(=O)Nc1c(C)nn(Cc2c(F)c(F)c(F)c(F)c2F)c1C	/	-2	0	11	-0.8	5693	-8
22	COc1cc(C=NNC(=O)c2cccnc2)ccc1OC(=O)c1ccco1	/	4	6	/	2.5	/	0
23	CCOC(=O)C1CCN(c2ncnc3c2cnn3-c2ccc(Cl)cc2)CC1	-7	5	0	9	4.0	2005	3
24	CCC(=O)N1CCCN(S(=O)(=O)c2ccc(C)cc2)C1c1ccc(OC)cc1 (stereo not drawn)	-3	2	-2	-11	5.6	4901	14
25	O=C(O)c1ccc(NN=CC2=Cc3ccccc3OC2)cc1	/	8	-6	/	14	/	28
26	CC(=O)NC(CCS(C)(=O)=O)C(=O)Nc1ccccc1Cl (stereo not drawn)	-6	/	/	1	0.7	4805	3
27	Nn1c(SCC(=O)Nc2ccccc2F)nc2ccccc2c1=O	0	2	-7	-15	6.7	16496*	13
28	CCOc1cccc(-c2c(C(=O)N/N=C/c3ccc(C)s3)nnn2-c2nonc2N)c1	-5	/	/	-2	/	5714	/
29	COCCNC(=O)CSc1ccc(-c2nc3ccccc3[nH]2)cn1	0	-10	-3	-22	1.9	3912	7
30	O=C(CN1CCCC1c1cccs1)Nc1cccc(S(=O)(=O)N2CCCC2)c1 (stereo not drawn)	/	9	5	-26	6.1	5787	10
31	Cc1cccc(C(=O)NCC(=O)OCC(=O)NC2CCCCC2)c1	/	14	5	-11	5.7	3817	11
32	Cc1cc([N+](=O)[O-])nn1Cc1c(F)c(F)c(F)c(F)c1F	-5	8	-3	-15	2.0	18842*	-8
33	COc1ccc(NC(=O)CN(C)C(=O)C2CC(=O)N(CCc3ccc(OC)c(OC)c3)C2)cc1 (stereo not drawn)	/	-3	9	-16	2.2	?	9
34	Cc1ccccc1C(=O)N[C@H](C(=O)OCC(=O)c1ccc[nH]1)C(C)C	-2	-3	3	-24	0.0	2483	-3
35	O=C(O)C1CC=CCC1C(=O)NCCc1csc(-c2ccccc2)n1 (stereo not drawn)	9	-7	-7	-1	23	6186	6
36	COC(=O)C1=CN(Cc2ccc(OC)c(OC)c2)C=C(C(=O)OC)C1c1cccc(O)c1	-2	/	/	-52	/	3899	/
37	O=C1NCC(Cc2cccc3ccccc23)N(CC2(c3ccccc3)CC2)C1=O (stereo not drawn)	/	0	9	/	9.6	/	9
38	COc1cc(OC)c2c(OC)cccc2n1	3	/	/	-12	-0.8	6958	9
39	O=C(Nc1ncc(Cl)cn1)c1cccs1	4	/	/	-28	4.0	2871	-3
40	COc1ccc2c(c1)c(CC(=O)OC(C)C(=O)N(C)C)c(C)n2C(=O)c1ccc(Cl)cc1 (stereo not drawn)	1	-1	-1	-18	4.0	3593	8

Compound profiles, from the list above. Order of values: BJeLR viability, Mtb hypoxia rep, Mtb hypoxia rep growth, PrP UTR inh, Sa RN4220 lethal, Bead autofluor, Sa ugtP lethal
COC(=O)C1=CN(Cc2ccc(OC)c(OC)c2)C=C(C(=O)OC)C1c1cccc(O)c1 is listed as -2, /, /, -52, /, 3899, /
Nn1c(SCC(=O)Nc2ccccc2F)nc2ccccc2c1=O is listed as 0, 2, -7, -15, 6.7, 16496*, 13
COc1ccc(NC(=O)CN(C)C(=O)C2CC(=O)N(CCc3ccc(OC)c(OC)c3)C2)cc1 (stereo not drawn) is listed as /, -3, 9, -16, 2.2, ?, 9

New compounds follow:
cpd	Compound	BJeLR viability	Mtb hypoxia rep	Mtb hypoxia rep growth	PrP UTR inh	Sa RN4220 lethal	Bead autofluor	Sa ugtP lethal
41	CCCN1C(=O)CC(c2ccco2)Sc2ccccc21 (stereo not drawn)	5	6	9	-32	4.1	9884	4
42	COC(=O)c1cc(NC(=O)c2cccc(F)c2)cc(C(=O)OC)c1	-9	15	0	-8	-5.3	3528	5
43	CC(=O)N1c2ccc(S(=O)(=O)NCCC(=O)NC3CCCCCC3)cc2CC1C (stereo not drawn)	1	4	5	-4	1.2	5476	8
44	CCS(=O)(=O)c1ccc(O)c(NC(=O)CC2(CC(=O)O)CCCC2)c1	-1	-5	4	-38	3.0	3851	4
45	O=C(CN1CCN(Cc2ccccc2Cl)C1=O)NCC1CCCO1 (stereo not drawn)	16	3	5	-11	8.0	4409	12
46	Cc1c(CCC(=O)O)c(=O)oc2cc3occ(C(C)(C)C)c3cc12	-3	14	-3	-5	13	4614	11
47	Cc1cc(-c2ccc(S(=O)(=O)N(C)c3ccc(C)c(C)c3)s2)on1	18	2	-3	-15	7.2	10577	-8
48	O=[N+]([O-])c1cccc(-c2nc3ccc([N+](=O)[O-])cc3[nH]2)c1	3	-6	-7	-55	-0.6	4241	-15
49	COc1cccc(OCCCOc2ccc([N+](=O)[O-])cc2Cl)c1	-1	/	/	-25	1.2	2673	-3
50	Cc1cc(NC(=O)CCc2ccc(S(=O)(=O)N3CCOCC3)cc2)n(-c2ccccc2)n1	-4	/	/	-3	1.8	2853	5
51	CCOc1ccc(NC(=O)N(C2CCCCC2)C(C)c2cccnc2)cc1 (stereo not drawn)	-4	8	1	-18	-1.3	6045	4
52	CCCCN(C)C(=O)Cn1ncc2c3ccccc3n(CCC)c2c1=O	-3	-4	8	2	-2.7	3663	-7
53	CC1CCC(C(C)C)C(OCC(O)CN2CCCC(C)C2)C1 (stereo not drawn)	2	-8	-8	-2	3.2	3521	7
54	O=c1nc2n(c3cccc(Cl)c13)CCCCC2	-1	-11	6	-2	0.1	3355	-10
55	CCCCNC(=O)Cc1coc2ccc3ccccc3c12	-10	6	4	3	1.5	4185	-2
56	CCn1c(NC(=O)/C=C/c2ccc(F)cc2)nc2ccccc21	14	0	2	6	25	4090	6
57	CCCCCOc1ccc(C(=O)CCC(=O)N2CCCC2)cc1	3	11	2	-14	1.7	5856	2
58	CCOC(=O)/C(=C/C1=CC(=C/N(C)C)/C(=O)O1)C(C)=O	6	11	7	8	2.2	2895	1
59	Cc1ccc(-c2nc(CS(=O)(=O)CC(=O)Nc3cc(F)ccc3F)c(C)o2)cc1	0	5	1	-15	4.4	4749	8
60	O=C(Cn1nc2sc3ccccc3n2c(=O)c1=O)c1cccs1	9	-2	10	/	3.7	5956	2
61	O=C1NC(=O)/C(=C\c2ccc(Oc3cnccn3)cc2)S1	2	15	5	-42	4.7	2145	-4
62	Brc1ccc(OCc2nnnn2-c2ccccc2)cc1	16	5	7	-25	11	4466	-5
63	COc1ccc(OC)c(NC(=O)CN2CCc3ccccc3C2)c1	-11	9	5	-5	4.4	3958	2
64	Cc1ccc(NC(=O)c2ccc(OCc3c(C)noc3C)cc2)cc1	4	13	-5	/	5.6	/	9
65	CCOC(=O)N1CCN(C(=O)C(CC)c2ccccc2)CC1 (stereo not drawn)	0	6	-17	-35	-1.3	10325	1
66	C=CCN1c2ccccc2[C@]23C[C@@H](C(=O)OC)N(C(=O)c4ccco4)C2=NC(C(=O)OC)=C(C(=O)OC)[C@H]13	9	/	/	-17	/	3713	/
67	CCOC(=O)C1=C(C)N(CCO)C(=O)NC1c1cccc(O)c1 (stereo not drawn)	9	/	/	-3	0.4	4819	2
68	Cc1cc(N2CCN(c3ccccc3)CC2)n2ncnc2n1	-4	6	2	-8	8.6	4239	11
69	COc1ccc(C(CNC(=O)c2cc(=O)[nH]c3ccccc23)N2CCCC2)cc1 (stereo not drawn)	9	-10	-13	0	-0.2	10361	0
70	O=C(O)c1ccc(NN=Cc2cccc(F)c2)cc1	/	7	0	/	6.7	/	14
71	O=C(NN=Cc1ccc2c(c1)OCO2)c1ccccn1	/	7	4	/	2.8	/	4
72	CCn1c(SCC(=O)N2c3ccccc3Sc3ccccc32)nc2c1c(=O)n(C)c(=O)n2C	-4	5	9	/	2.9	8396	9
73	COc1ccc(CNC(=S)Nc2cccc(Cl)c2)cc1	-4	2	0	/	-2.1	3260	-15
74	CCCN1C(=O)/C(=C/c2c(NCCCOCC)nc3c(C)cccn3c2=O)SC1=S	/	2	-2	-15	6.1	3642	-2
75	O=C(N1CCOCC1)N(CCN1CCOCC1)Cc1cccc(Cl)c1	2	/	/	-24	1.7	4959	2
76	Cc1cccc(Nc2ncnc3nc[nH]c23)c1C	-3	2	1	-10	9.4	4490	-10
77	Cc1ccc(C(=O)N/C(=C/c2ccc(-c3cccc([N+](=O)[O-])c3)o2)C(=O)NC(C)C)cc1	0	-9	1	-4	-9.9	2407	0
78	O=C(Cc1cccs1)Nc1cccc(-c2nc3cc4ccccc4cc3[nH]2)c1	16	5	2	-127	58	2043	54
79	CCOC(=O)C1CCN(C(=O)CS(=O)Cc2nc(-c3ccc(C)cc3)oc2C)CC1 (stereo not drawn)	-1	-3	9	-7	-10	4455	-3
80	CCNC(=S)NNC(=O)c1ccoc1C	-1	0	-2	-3	4.3	3285	14
81	Cc1c(Br)c([N+](=O)[O-])nn1CC(=O)NCc1cccnc1	-4	-2	11	-19	0.0	5957	2
82	CC(C)(C)c1nc2ccccc2c(=O)n1N1C(=O)c2ccccc2C1=O	/	-2	12	-7	-6.5	4448	8
83	O=C(NCCO)c1cccc(S(=O)(=O)N2CCCCC2)c1	7	1	-5	-4	-1.9	6827	1
84	Cc1cc(CNC(=O)Cn2cc([N+](=O)[O-])cn2)c2ccccc2n1	8	17	7	4	7.7	4291	2
85	O=C(c1ccc(Cl)cc1)c1c[nH]c(C(=O)NNc2ccccc2)c1	1	3	0	8	-5.2	2149	-7

Screening data deposited in PubChem BioAssay by several laboratories.
